# RecA intein inh: blocks M. tuberculosis RecA intein splicing; 290,000 tested, 0.75% active; cell-free RecA intein splicing, fluorescence; inhibition, %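 (about 9 µM by stock and volumes)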; in the data active means inhibition above about 30%; inconclusive means no clear call, values can overlap the other calls;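 further: 0% = vehicle wells and 100% = reference inhibitor control wells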
# Target sequence (P9WHJ3 whole entry, looked up): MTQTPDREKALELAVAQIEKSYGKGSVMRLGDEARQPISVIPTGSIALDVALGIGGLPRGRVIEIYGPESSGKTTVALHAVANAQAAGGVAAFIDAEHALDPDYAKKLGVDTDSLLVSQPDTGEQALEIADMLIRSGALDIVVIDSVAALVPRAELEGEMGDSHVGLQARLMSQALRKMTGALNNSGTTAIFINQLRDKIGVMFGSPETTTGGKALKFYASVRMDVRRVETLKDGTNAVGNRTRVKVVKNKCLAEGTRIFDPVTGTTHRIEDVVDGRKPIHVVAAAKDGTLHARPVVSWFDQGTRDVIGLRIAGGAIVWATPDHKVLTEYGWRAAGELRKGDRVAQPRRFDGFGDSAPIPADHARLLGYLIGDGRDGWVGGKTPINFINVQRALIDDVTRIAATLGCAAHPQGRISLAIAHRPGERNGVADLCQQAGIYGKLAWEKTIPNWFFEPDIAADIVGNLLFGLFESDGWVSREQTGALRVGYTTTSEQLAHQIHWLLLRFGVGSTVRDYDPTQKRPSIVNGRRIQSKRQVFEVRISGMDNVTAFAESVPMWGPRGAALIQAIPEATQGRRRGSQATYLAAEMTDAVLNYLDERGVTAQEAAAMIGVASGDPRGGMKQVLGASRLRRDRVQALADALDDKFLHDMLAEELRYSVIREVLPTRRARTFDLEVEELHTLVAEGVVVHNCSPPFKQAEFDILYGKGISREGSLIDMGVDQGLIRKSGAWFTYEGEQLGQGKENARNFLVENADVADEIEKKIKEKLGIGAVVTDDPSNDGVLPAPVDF
# Mtb H37Rv: M. tuberculosis H37Rv growth inhibitors, H37Rv strain (AID 1626); M. tuberculosis H37Rv growth inhibition; higher % means a stronger effect; one-dose inhibition, % at 10 µM; IC50 in µM for titrated hits; 220,000 tested, 0.95% active;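 active means confirmed in a dose series; inconclusive means inhibition above 80% but not taken into the dose series; inactive means below 80% or under 30% at every dose of the series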;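 further: bacteria incubated seven days before Alamar blue readout; 0% = bacteria only wells and 100% = bacteria with antibiotic wells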
# Mtb bLac sens: beta-lactam sensitization of Mtb H37Rv; M. tuberculosis H37Rv growth with meropenem, percent inhibition; hits of this screen are not shown here; inhibition, % at 25 µM; 330,000 tested, 0.27% active;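 active means about 74% or more and at least 40 points above the plate without the antibiotic, then above 30% in a dose series; inconclusive means first-round hits that could not be retested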;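 further: growth measured after seven days incubation then overnight dye step; 0% = bacteria only wells and 100% = bacteria with antibiotic; twin plates without the antibiotic show which effects depend on it; some results filed as inactive read as strong as hits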
# YopH inh: YopH (Yersinia) phosphatase inhibition. AID 898. fluorescence Ex485/Em525. inhibition, %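 (about 10 µM by stock and volumes)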. 140,000 tested, 0.16% active;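 active means inhibition of 50% or more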;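 further: controls were vehicle for no effect and minimum signal wells for full effect; inactives centre near -20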
# Arbovirus inh: arbovirus infection inhibition. arbovirus infection cell-based antiviral screen. inhibition, % at 10 µM. 200,000 tested, 0.37% active;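 active means inhibition from about 30%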;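 further: bluetongue infection of BSR cells; cell survival read as ATP light after 72 h; 0% = infected wells without compound and 100% = uninfected wells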
# Active calls of the source: *; ? = inconclusive; · = no result given; & = joins results of further samples.
# Every second line gives: RecA intein inh	Mtb H37Rv	Mtb bLac sens	YopH inh	Arbovirus inh
> Cn1c(SCc2nc(-c3ccccc3)no2)nnc1-c1cccs1
 : 3.0	-6%	-6	-22	-6
> O=C(O)/C=C/C(=O)c1ccc(O)cc1
 : 0.3	-11%	-3	·	·
> Cc1cc(=O)[nH]c(-c2ccc(Cl)cc2)n1
 : 2.8	-6%	-8	·	·
> COc1ccc(OCC(=O)N2CCCC(N3CCN(c4ccccc4C)CC3)C2)cc1 (stereo not given)
 : -0.1	·	8	·	·
> O=Nc1c(O)[nH]c2c(F)cccc12
 : 3.3	-3%	-5	-31	1
> COc1ccc(Cl)cc1NC(=O)c1nnn(CC(=O)Nc2ccc3c(c2)OCO3)c1N
 : -0.3	·	2	·	·
> CC(C)c1ccc(N(CC(=O)NCc2ccc(F)cc2)C(=O)c2csnn2)cc1
 : -1.1	2%	-3	·	-18
> O=C(N/N=C/c1ccco1)C1COc2ccccc2O1 (stereo not given)
 : -1.3	5%	1	-9	-8
> CC1CN(C(=O)C(C)Sc2nc3ccccc3s2)CC(C)O1 (stereo not given)
 : -1.1	3%	0	-45	-2
> CC(C)CC(COCc1ccc(Cl)cc1)N1CCN(C(=O)c2cccc(C(F)(F)F)c2)CCC1=O (stereo not given)
 : 11	-8%	-5	-12	-14
> Nc1nonc1-n1nnc(C(=O)N/N=C/c2c(F)cccc2Cl)c1-c1ccc2c(c1)OCO2
 : -0.7	·	4	·	·
> COc1cccc(NC(=S)N(CCN(C)C)C(C)c2ccco2)c1 (stereo not given)
 : -0.6	-4%	0	-31	10
> O=C(c1ccc([N+](=O)[O-])cc1)N1CCN(C(=O)c2cccs2)CC1
 : 1.7	-3%	-12	-17	7
> CN(C)c1ccc(CNC(=O)C2CCN(S(=O)(=O)c3ccc4c(c3)CCC(=O)N4)CC2)cc1
 : -2.5	-3%	-4	12	-1
> Cc1cc(=O)oc2cc(OCC(=O)Nc3ccc(CN4CCOCC4)cc3)ccc12
 : 0.3	·	-1	·	·
> CCCCCc1c(C)nc(Nc2ccc(F)cc2)[nH]c1=O
 : -0.7	-6%	-1	-25	15
> O=C(N/C=N/O)C(c1ccccc1)c1ncc(C(F)(F)F)cc1Cl (stereo not given)
 : 7.6	·	1	·	·
> C/C(CC(=O)Nc1ccc(Br)cc1)=N\NC(=O)c1cccc(O)c1
 : 4.1	·	28	·	·
> O=C(Nc1cccc(/C=C/c2nc3ccccc3c(=O)[nH]2)c1)c1ccccc1Cl
 : 1.5	7%	60	·	·
> CCOc1ccc(S(=O)(=O)N(CC)CC)cc1NC(=O)CSCc1c(C)noc1C
 : 1.0	·	-10	·	·
> O=C(NCCCn1ccnc1)c1cccc(S(=O)(=O)NCc2ccccc2)c1
 : 0.7	-9%	-2	·	-6
> Cc1nc(N)sc1-c1csc(Nc2ccccc2)n1
 : 12	-3%	5	28	-11
> CCCCC(CCC(=O)Nc1ccc(C(=O)OCC)cc1)C(=O)O (stereo not given)
 : 8.4	0%	24	-203	6
> CC(=O)C(Sc1nc(N2CCOCC2)nc(N2CCOCC2)n1)C(=O)Nc1ccccc1 (stereo not given)
 : -0.2	-8%	1	-27	6
> CCOC(=O)c1sc(NNC(=O)c2ccc(C)cc2)nc1C
 : -3.5	-4%	-1	·	·
> O=C(CCS(=O)(=O)c1ccc(Br)cc1)NCc1ccco1
 : -0.5	·	0	·	·
> CCOc1ccc(N2CC(C(=O)NCCCN3CCOCC3)CC2=O)cc1 (stereo not given)
 : -2.0	-1%	4	8	7
> Cc1cc(=O)n(C)c(=O)n1CCCCOc1ccc([N+](=O)[O-])cc1
 : -2.2	1%	-12	·	6
> O=C(OCC(=O)N1CCN(c2ccccc2)CC1)c1ccc[n+]([O-])c1
 : -2.2	5%	5	·	-1
> CCC(=O)Nc1ccc(C(=O)Nc2cccc(OC)c2)cc1
 : -0.7	0%	4	-5	-5
> Cc1cc(N=Nc2ccccc2)c(NCC(O)C(O)C(O)CO)cc1C (stereo not given)
 : -1.9	-1%	6	·	10
> COc1cccc(NC(=O)CSc2nc3c(c(-c4ccco4)c2C#N)CCCC3)c1
 : -1.5	-3%	16	-41	8
> Fc1ccc2nc(Nc3nc4c(F)cccc4s3)sc2c1
 : 2.3	30%	4	-24	34*
> C/C(=N\NC(=O)c1ccc(CSc2nc(C)cc(C)n2)cc1)c1ccco1
 : 6.6	4%	73	·	-11
> Cn1c(NC(=O)C2c3ccccc3Oc3ccccc32)cc(=O)n(C)c1=O
 : ·	-5%	-14	-46	0
> Cc1ccc(C2=NN=C(NC(=O)CSc3nnc4c5ccccc5n(C)c4n3)SC2)cc1
 : 1.6	11%	5	6	-16
> O=C(COC(=O)/C=C/c1ccccc1[N+](=O)[O-])NCC1CCCO1 (stereo not given)
 : -4.5	5%	-5	·	4
> COc1ccc(CCNC(=O)C2CCCN(S(=O)(=O)N3CC(C)CC(C)C3)C2)cc1OC (stereo not given)
 : -0.6	·	-4	·	·
> Cn1nnc2cc(C(=O)Nc3ccc4ccccc4c3)ccc21
 : ·	0%	5	·	-4
> CC(NC(=O)/C(C#N)=C/c1ccc(Cl)c([N+](=O)[O-])c1)c1ccccc1 (stereo not given)
 : 62*	3%	81	-29	-35

# Some of the entries so far, with each value named.
Molecule: COc1ccc(CCNC(=O)C2CCCN(S(=O)(=O)N3CC(C)CC(C)C3)C2)cc1OC (stereo not given)
  RecA intein inh = -0.6 | Mtb H37Rv = · | Mtb bLac sens = -4 | YopH inh = · | Arbovirus inh = ·
Molecule: Cn1nnc2cc(C(=O)Nc3ccc4ccccc4c3)ccc21
  RecA intein inh = · | Mtb H37Rv = 0% | Mtb bLac sens = 5 | YopH inh = · | Arbovirus inh = -4
Molecule: Cc1ccc(C2=NN=C(NC(=O)CSc3nnc4c5ccccc5n(C)c4n3)SC2)cc1
  RecA intein inh = 1.6 | Mtb H37Rv = 11% | Mtb bLac sens = 5 | YopH inh = 6 | Arbovirus inh = -16
Molecule: COc1cccc(NC(=O)CSc2nc3c(c(-c4ccco4)c2C#N)CCCC3)c1
  RecA intein inh = -1.5 | Mtb H37Rv = -3% | Mtb bLac sens = 16 | YopH inh = -41 | Arbovirus inh = 8

# Later entries
# Every second line gives: RecA intein inh	Mtb H37Rv	Mtb bLac sens	YopH inh	Arbovirus inh
> O=C(Nc1ccsc1C(=O)NC1CC1)c1ccccc1
 : 1.8	-2%	8	-39	8
> O=C(CN(c1ccc(F)cc1)S(=O)(=O)c1ccc2c(c1)OCCO2)NCc1ccccc1
 : 0.0	-4%	-2	-12	-5
> CCNC(=O)OCc1cn(-c2ccc(Cl)cc2)nn1
 : -4.9	7%	-1	·	13
> CN1C(C(=O)NCCc2cccs2)CC2Cn3c(nc4ccccc43)C21 (stereo not given)
 : -0.6	3%	-2	·	·
> CCc1nnc(SCC(=O)Nc2ccc(N3CCN(S(C)(=O)=O)CC3)cc2)o1
 : 3.4	·	2	·	·
> COc1cccc(N=Nc2ccc3cccnc3c2O)c1
 : 10	·	84	·	·
> COC(=O)[C@@H]1[C@H]2C[C@H]3c4[nH]c5ccccc5c4CCN3C[C@@H]2CC[C@@H]1O
 : 1.8&2.1	-5%	-1&3	·	·
> Cc1ccc2nc3c(cc2c1)c(NC(=O)c1ccccn1)nn3CC(C)C
 : -8.6	1%	-9	10	6
> Cc1cccc(NC(=O)CNC(=O)CNC(=O)Cc2ccccc2)c1
 : 1.8	·	-3	·	·
> C/C(=N\NC(=O)C(=O)N/N=C(\C)c1cccc(O)c1)c1cccc(O)c1
 : -3.5	-1%	-4	·	5
> Cc1cc(C)nc(NCCO)n1
 : -0.4	-2%	4	·	0
> COc1ccc(/C=C2\N=C3CCCCCN3C2=O)cc1OC
 : -0.4	-3%	1	-174	-3
> CC(C)Cc1cc(C(C)(C)C)ccc1OC(=S)N(C)C
 : 2.4	·	-6	·	·
> Nc1ccc2nc(SCC(=O)N3CCOCC3)sc2c1
 : -4.8	2%	-8	·	-12
> COCCn1nnnc1C(c1ccc(OC)cc1)N1CCN(C(=O)c2ccco2)CC1 (stereo not given)
 : 9.3	·	-1	·	·
> CCC(=O)Nc1ccc(NC(=O)CSc2nnnn2CC)cc1C
 : ·	0%	-8	-2	8
> O=C(CSc1nnc2c(n1)[nH]c1ccc(F)cc12)N1CCOCC1
 : 1.4	-1%	-5	·	5
> O=C(c1ccsc1)N1CCCC(Nc2cccc(F)c2)C1 (stereo not given)
 : -0.8	·	-6	·	·
> COc1ccc(CSc2nnnn2-c2ccccc2)cc1
 : 6.7	·	0	11	-1
> Cc1ccc(C)c(NC(=O)/C(C#N)=C/c2cn(CC(=O)NCc3ccco3)c3ccccc23)c1
 : -6.2	5%	4	-11	-17
> NC(=O)SCC(=O)Nc1ccccc1C(=O)O
 : -2.4	-2%	1	·	·
> Cc1nc(C(=O)NNC(=O)c2ccc(Cl)cc2)c(C(F)(F)F)o1
 : -7.2	·	35	·	·
> CC(C)(C)c1ccc(-c2nc(C=O)c3ccccn23)cc1
 : 2.9	·	93	-19	-15
> CC12CCC(c3c(C(=O)Nc4nccs4)nn(-c4ccccc4)c31)C2(C)C (stereo not given)
 : 8.3	74%	64	-18	-18
> CC(=O)NC1CCN(CC(=O)Nc2nccs2)CC1
 : -0.6	·	-5	·	·
> CCCCn1c(SCc2cccnc2)nc2c1c(=O)n(C)c(=O)n2C
 : 1.3	0%	4	-18	3
> OCCN1CCN(CC/C=C2/c3ccccc3Sc3ccc(C(F)(F)F)cc32)CC1
 : -1.6	·	83	·	·
> CCCCn1c(=O)[nH]c2nc3cc(NC(C)=O)ccc3nc2c1=O
 : -17	2%	-3	·	·
> COc1cccc(C2Nc3cc(Cl)c(S(N)(=O)=O)cc3S(=O)(=O)N2)c1 (stereo not given)
 : -1.0	·	-8	5	0
> CCCCOC(=O)C(C)Nc1n[nH]c(=O)[nH]c1=O (stereo not given)
 : 0.8	-1%	-10	-42	4
> COc1ccc(N2CCN(C(=O)c3ccc(C(C)(C)C)cc3)CC2)cc1
 : -1.0	-3%	8	-12	8
> Cc1ccc(N=Cc2cc3c(cc2O)OC(N)=C(C#N)C3c2ccccc2)cc1 (stereo not given)
 : -5.5	-2%	4	-11	-2
> Cc1ccc(S(=O)(=O)NCC(=O)N/N=C/c2ccc(Cl)cc2Cl)cc1
 : 2.6	1%	0	-12	-3
> CCC(C)N1C(=O)/C(=C\c2cnc(N(C)C)nc2)C(=O)NC1=S (stereo not given)
 : 16	0%	-3	·	2
> COC(=O)c1ccc(CN2C(=O)NC3(CCCCC3)C2=O)cc1
 : 1.9	-6%	-3	·	4
> O=C(CC1C(=O)NCCN1C(=O)Nc1ccc(F)cc1F)Nc1cc(Cl)ccc1Cl (stereo not given)
 : 1.3	3%	-8	·	·
> O=C1CCCc2c1cc(C(=O)NCc1ccco1)c(=O)n2-c1ccc(Cl)cc1
 : 3.4	-10%	5	29	-1
> Cc1csc(NC(=O)CSc2nnc(-c3ccc(S(=O)(=O)N4CCCC4)cc3)o2)n1
 : 0.9	3%	59	-56	-6
> NC1=NC[C@@H](Cc2ccc(O)cc2)N1CCCCC1CCCCC1
 : 7.5	?	100	·	·
> O=C(C[n+]1ccccc1)N/N=C/c1cccc(Cl)c1Cl
 : 1.0	·	1	·	·
> O=C(CNCc1ccc(F)cc1)Nc1ccccc1-c1ccccc1
 : 1.8	9%	4	-13	-16
> Nc1ccc2c(c1)C(=O)C(=O)c1ccccc1-2
 : 97*	0.4µM*	100	101*	-42
> COc1ccccc1NS(=O)(=O)c1ccc2c(c1)n(C)c(=O)n2C
 : 0.6	-3%	-6	-23	6
> N#CC1(C#N)C(C(=O)C23CC4CC(CC(C4)C2)C3)C12CCOCC2 (stereo not given)
 : 0.0	5%	-7	·	19
> CS(=O)(=O)N(CC(=O)NC1CCCCCC1)Cc1ccccc1
 : 3.6	8%	8	4	-3
> COC(=O)[C@@H]1C[C@@]2(O)[C@@H](O)[C@@H](O)[C@@H](O)C[C@H]2N1Cc1cc(OC)cc(OC)c1
 : 1.1	-4%	-7	·	·
> CCOC(=O)/C(C(N)=NCCO)=C(/O)c1ccccc1
 : -0.4	-4%	5	-18	10
> COc1ccc(N(C(=O)c2snc(C(N)=O)c2N)C(C(=O)NC2CCCC2)c2ccco2)cc1 (stereo not given)
 : -4.3	·	-5	·	·
> Cc1cccc(N/N=C2/COC(C)(C)CC2=O)c1
 : 6.0	11%	11	-15	-15
> CCCOc1ccc(/C=C/C(=O)Nc2ccc([N+](=O)[O-])cc2C)cc1OC
 : -2.4	-5%	-1	-33	3

# Going on with the list.
# Every second line gives: RecA intein inh	Mtb H37Rv	Mtb bLac sens	YopH inh	Arbovirus inh
> Cc1ccc(NC(=O)Nc2ccc(F)cc2)cc1Cl
 : -0.8	-2%	3	·	12
> Cc1sc2ncn(CCC(=O)O)c(=O)c2c1C
 : 1.5	-3%	-13	-44	-2
> CC1CN(C(=O)CCNC(=O)c2ccc(Cl)cc2)CC(C)O1 (stereo not given)
 : -1.5	·	6	·	·
> Cc1ccc(OCc2nnc(SCCN3CCOCC3)n2C)cc1
 : -1.2	-11%	-3	-8	6
> O=C(NC1CCCC1)c1ccc(CS(=O)Cc2ccccc2Cl)o1 (stereo not given)
 : 0.1	·	0	·	·

# From PubChem BioAssay

# These rows are one share of the data; the hit share may differ from the screen's.
